Screening data from PubChem.
NPR1 antag = blocks ANP-stimulated signaling of human Npr1 receptor | P16066 | HEK293 hNpr1 GloSensor cGMP, ANP-stimulated luminescence | Potency, µM (titrated, usually from 46.3 µM), for the others: at the top dose activity change, negative = inhibition, most hits filed as inhibitors | 76,000 tested, 1.6% active; active = well fitted inhibition curve with a large enough effect; inconclusive = small, poorly fitted or top-dose-only effect; inactive = no such curve, though single readings can be large or run the other way;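 note: nearly all actives have a fitted effect of over 60% in size; nearly all hits also lower the signal before the agonist is added; a reference antagonist and vehicle were the controls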
Target sequence (P16066 whole entry, looked up): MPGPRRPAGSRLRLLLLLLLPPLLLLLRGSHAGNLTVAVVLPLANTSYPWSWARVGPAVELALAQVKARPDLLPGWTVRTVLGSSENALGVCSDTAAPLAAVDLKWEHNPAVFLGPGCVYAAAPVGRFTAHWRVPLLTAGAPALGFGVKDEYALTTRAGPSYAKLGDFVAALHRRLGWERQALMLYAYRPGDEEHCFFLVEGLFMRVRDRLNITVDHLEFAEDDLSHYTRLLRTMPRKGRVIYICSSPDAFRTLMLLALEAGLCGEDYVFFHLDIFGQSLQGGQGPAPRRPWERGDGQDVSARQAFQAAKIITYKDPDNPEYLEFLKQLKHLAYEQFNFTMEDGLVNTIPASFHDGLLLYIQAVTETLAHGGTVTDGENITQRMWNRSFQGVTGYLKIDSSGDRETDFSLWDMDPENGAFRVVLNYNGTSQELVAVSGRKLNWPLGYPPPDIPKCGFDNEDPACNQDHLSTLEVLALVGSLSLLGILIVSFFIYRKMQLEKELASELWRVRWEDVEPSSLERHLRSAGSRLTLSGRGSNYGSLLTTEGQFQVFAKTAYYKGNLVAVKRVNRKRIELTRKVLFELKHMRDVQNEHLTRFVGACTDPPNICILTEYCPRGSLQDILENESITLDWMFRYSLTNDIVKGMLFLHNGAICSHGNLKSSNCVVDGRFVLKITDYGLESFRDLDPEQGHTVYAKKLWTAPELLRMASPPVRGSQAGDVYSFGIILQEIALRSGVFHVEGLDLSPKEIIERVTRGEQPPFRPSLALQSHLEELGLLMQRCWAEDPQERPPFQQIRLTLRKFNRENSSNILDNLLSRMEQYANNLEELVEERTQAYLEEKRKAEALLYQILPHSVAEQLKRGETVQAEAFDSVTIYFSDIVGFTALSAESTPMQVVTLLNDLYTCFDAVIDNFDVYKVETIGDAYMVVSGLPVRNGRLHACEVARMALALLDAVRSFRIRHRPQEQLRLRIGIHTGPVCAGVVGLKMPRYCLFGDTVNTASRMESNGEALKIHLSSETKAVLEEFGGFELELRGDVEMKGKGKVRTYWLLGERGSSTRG
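Compound pre-incubated 30 min at room temperature on GloSensor-loaded HEK293 cells stably carrying hNpr1 and the pGS-40F cGMP biosensor. Stimulation uses hNppA at 0.1 nM final; luminescence is taken at baseline and 20 min post-agonist.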
The depositor's hits bear a star. % is set by controls: 0 for no effect and ±100 for the full control effect; potency is the fitted concentration of half-maximal effect. Only part of the results is shown; rates above refer to the full screens.

NPR1 antag | structure
4% | O=C(NCCc1noc(C2CC2)n1)C1CCCC1
5% | COc1ccc(C(=O)N2CCC(c3noc(-c4ccncc4)n3)C2)cn1 (stereo not given)
10% | O=C(NC1CC1)C1CCN(c2cnn(Cc3ccccc3)c(=O)c2)C1 (stereo not given)
7% | Cc1ccc(S(=O)(=O)N2CCC(n3cnnc3C)CC2)cc1C
4% | Cc1noc([C@@H]2CN(Cc3cn[nH]c3-c3ccccc3)C[C@H]2CO)n1
-1% | CCNC(=O)N1CCCC(c2nn(C)c(=O)n2C2CCCC2)C1 (stereo not given)
0% | O=C(NCC1CCOCC1)Nc1ccccc1
3% | COc1ccc(NC(=O)C2CN(S(C)(=O)=O)CC23CCCCC3)cc1 (stereo not given)
9% | COc1ccc(CN2CC[C@@H]3CN(S(C)(=O)=O)[C@@H]3C2)cc1C
0% | CC(=O)N1C[C@@H](C(=O)NCCc2cccs2)[C@H](c2nc(C)no2)C1
8% | Cc1ccc2cc(CCC(=O)NCCCN3CCCC3=O)c(=O)[nH]c2c1
3% | CC(=O)c1cccc(NC(=O)Cn2c(=O)n(-c3ccc(F)cc3)c(=O)c3c2cc(C)n3C)c1
-8% | COc1cc([C@@H]2c3cc4c(cc3[C@H](O)[C@@H](CO)[C@@H]2C(=O)NC2CCCC2)OCO4)cc(OC)c1OC
0% | CCN1C(=O)C(CC(=O)NCCOC)Sc2ncccc21 (stereo not given)

Sorted by heavy-atom count (lowest first): part of the list above
NPR1 antag | structure
4% | O=C(NCCc1noc(C2CC2)n1)C1CCCC1
-1% | CCNC(=O)N1CCCC(c2nn(C)c(=O)n2C2CCCC2)C1 (stereo not given)
0% | CC(=O)N1C[C@@H](C(=O)NCCc2cccs2)[C@H](c2nc(C)no2)C1
3% | COc1ccc(NC(=O)C2CN(S(C)(=O)=O)CC23CCCCC3)cc1 (stereo not given)

An excerpt from above in order of their number in NPR1 antag, descending:
NPR1 antag | structure
9% | COc1ccc(CN2CC[C@@H]3CN(S(C)(=O)=O)[C@@H]3C2)cc1C
5% | COc1ccc(C(=O)N2CCC(c3noc(-c4ccncc4)n3)C2)cn1 (stereo not given)
4% | Cc1noc([C@@H]2CN(Cc3cn[nH]c3-c3ccccc3)C[C@H]2CO)n1
